# SARS PLpro yeast – SARS-CoV PLP inhibition in yeast. Potency, µM (top dose mostly 32.9 µM), without a hit: at the highest dose activity, positive = growth rescue. 0.19% of 330,000 active. S. cerevisiae expressing SARS-CoV PLpro, growth rescue; control for the full effect not named in the record. AID 485353; active means well fitted rising curve with a large enough effect; inconclusive means small, poorly fitted or top-dose-only effect; inactive means no such curve, though single readings can be large or run the other way; note: 0% is about no effect; nearly all actives have a fitted effect of over 55% in size; growth read by luminescence after 48 h
# Lassa entry inh – inhibitors of Lassa virus binding or cell entry. Lassa virus pseudotype entry inhibition, cell reporter; control for the full effect not named in the record. Potency, µM (doses to about 37.9 µM), for inactives: top-dose activity change, negative = inhibition, usual class: inhibitors. 1.2% of 300,000 active; active means well fitted inhibition curve with a large enough effect; inconclusive means small, poorly fitted or top-dose-only effect, or effect the other way; inactive means flat fitted curve, though single readings scatter; tested in HEK293 cells; note: % is set by controls: 0 for no effect and ±100 for the full control effect; nearly all actives have a fitted effect of over 50% in size; luciferase read-out
# Cruzain inh noDet – inhibitors of Trypanosoma cruzi cruzain without detergent. Potency, µM, for inactives: max response, negative = inhibition, hits mostly inhibitors. purified cruzain, Z-FR-AMC fluorescence, no detergent. 2.3% of 200,000 active. AID 1476;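 note: plate controls were enzyme without inhibitor for no effect and buffer without enzyme for full effect; nearly all actives have a fitted effect of over 40% in size; top concentration of the series not given in the record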
# Target sequence (P25779 123-467 limits assumed): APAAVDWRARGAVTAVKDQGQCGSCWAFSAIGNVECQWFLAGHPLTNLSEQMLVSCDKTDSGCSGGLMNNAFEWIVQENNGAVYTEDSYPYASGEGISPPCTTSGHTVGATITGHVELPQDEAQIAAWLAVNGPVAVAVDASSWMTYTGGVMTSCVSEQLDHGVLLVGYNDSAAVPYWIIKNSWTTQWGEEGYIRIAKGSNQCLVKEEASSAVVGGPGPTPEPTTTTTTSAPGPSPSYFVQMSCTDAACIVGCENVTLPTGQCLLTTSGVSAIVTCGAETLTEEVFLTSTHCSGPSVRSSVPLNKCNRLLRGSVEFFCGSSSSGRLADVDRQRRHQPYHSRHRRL
#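 Purified cruzain at 1.5 nM, pre-incubated 15 min with compound at room temperature in 100 mM sodium acetate pH 5.5, 5 mM DTT, 0.00005% Triton X-100. Reaction started with 2 uM Z-FR-AMC; AMC fluorescence increase over 60 s gives rate.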
# 2A StopGo – FMDV 2A StopGo reporter, luciferase signal; Potency, µM (highest dose often 57.9 µM), without a hit: at the highest dose signal change, negative = less light; human cells with a luciferase reporter of 2A StopGo recoding; control for the full effect not named in the record; 1.2% of 410,000 active; AID 1159524; active = well fitted falling curve with a large enough effect; inconclusive = small, poorly fitted or top-dose-only effect; inactive = no such curve, though single readings can be large or run the other way; tested in HEK293T cells; note: % is set by controls: 0 for no effect and ±100 for the full control effect; nearly all actives have a fitted effect of over 45% in size; luciferase light after 4 h
# RE007 growth inh – less growth of the S. pombe RE007 Vpr strain | 0.21% of 360,000 active | S. pombe RE007 Vpr strain, BacTiter-Glo ATP luminescence, 24 h; control for the full effect not named in the record | Potency, µM (doses to about 92.2 µM), inactives show top-dose activity change, negative = less growth | AID 651644; active = well fitted falling curve with a large enough effect; inconclusive = small, poorly fitted or top-dose-only effect; inactive = no such curve, though single readings can be large or run the other way;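 note: % is set by controls: 0 for no effect and ±100 for the full control effect; nearly all actives have a fitted effect of over 50% in size; the assay follows cell death caused by Vpr and the record does not say whether a fall means rescue or toxicity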
#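 Fission yeast strain RE007, carrying one chromosomally integrated HIV-1 vpr copy, was seeded at OD 0.01 in PMG+AL medium with 23 nL pinned compound. After 24 h at 30 °C and 99% humidity, viability was read by BacTiter-Glo luminescence.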
# Cruzain Triton – inhibitors of Trypanosoma cruzi cruzain with detergent | P25779 | purified cruzain, Z-FR-AMC fluorescence, 0.01% Triton | Potency, µM, for inactives: max response, negative = inhibition, actives largely listed as inhibitors | 0.43% of 200,000 active;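 note: plate controls were neutral wells for no effect and buffer without enzyme for full effect; nearly all actives have a fitted effect of over 40% in size; top concentration of the series not given in the record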
#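 Detergent-containing run (0.01% Triton X-100) in acetate buffer pH 5.5 with 5 mM DTT: enzyme at 1.5 nM final, 15 min compound preincubation at room temperature, then 2 uM Z-FR-AMC substrate. Activity taken as 60 s fluorescence increase at 360/450 nm.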
# NS1 inh – influenza NS1 inhibition; S. cerevisiae slowed by influenza A NS1, growth recovery by OD600; Potency, µM (titrated, usually from 46.1 µM), without a hit: top-dose activity, positive = more growth; 0.4% of 270,000 active; active means well fitted rising curve with a large enough effect; inconclusive means small, poorly fitted or top-dose-only effect; inactive means no such curve, though single readings can be large or run the other way; note: nearly all actives have a fitted effect of over 50% in size
#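 Compounds were scored for reversing the slow growth caused by influenza A NS1 in S. cerevisiae, measured by optical density at 600 nm. Assay medium contained 2% galactose at pH 6.0; NS1-free yeast of the same strain were the positive control.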
# Marburg entry inh – blocks Marburg virus binding to or entry into cells; Marburg virus pseudotyped entry inhibition, cell reporter; control for the full effect not named in the record; about a third of the inactives were read at about 46 µM; Potency, µM (top dose mostly 37.8 µM), for the others: at the top dose activity change, negative = inhibition, actives largely listed as inhibitors; 1.8% of 300,000 active; active = well fitted inhibition curve with a large enough effect; inconclusive = small, poorly fitted or top-dose-only effect, or effect the other way; inactive = flat fitted curve, though single readings scatter; tested in HEK293 cells; about a fifth of its hits are not listed in these tables; note: % is set by controls: 0 for no effect and ±100 for the full control effect; luciferase read-out
# The depositor's hits bear a star; ? = inconclusive; . = no result given; & = joins results of further samples; [ ] = dose if it differs, or a comment. Unless noted, calls come from the whole dose curve; as a rule, active = well fitted curve in the direction sought with a large enough effect; inconclusive = small, poorly fitted or top-dose-only effect, or another doubt; inactive = no such curve, though single readings can be large; an effect the other way counts as inactive or inconclusive. Potency is the fitted concentration of half-maximal effect.
SMILES,SARS PLpro yeast,Lassa entry inh,Cruzain inh noDet,2A StopGo,RE007 growth inh,Cruzain Triton,NS1 inh,Marburg entry inh
COC(=O)N1[C@H](Cc2ccccc2)C=C[C@]1(C)C(=O)O,-2%,10%,-3%&-7%,1%,1%,-7.5%&1.2%,-9%,-9%
CC(=O)N1CCC(C(=O)Nc2nc(-c3ccccc3)ns2)CC1,7%,?,-5%,2.8µM*,-19%,-1.0%,6%,12%
CN(Cc1ccccc1)c1ncnc2onc(-c3ccc(F)cc3)c12,.,4%[46.1 µM],-15%,?,.,-8.0%,.,.
CCCNC(=O)CN1C(=O)CSc2ccc(S(=O)(=O)N3CCC(C)CC3)cc21,.,.,6%,-3%,.,-1.4%,.,7%[46.1 µM]
CS(=O)(=O)N(CC(=O)N1CCN(c2ccc(F)cc2)CC1)C1CCCCC1,-6%,1%,3%,.,14%,6.8%,4%,2%
COc1cccc2sc(N(CCCN(C)C)C(=O)C(c3ccccc3)c3ccccc3)nc12,-18%,?,.,0%,9%,.,.,10µM*
NC(=O)NOCc1ncc(C(F)(F)F)cc1Cl,7%,-11%,4%,-10%,4%,3.5%,2%,-1%
CC1CCCC(C)N1CC(O)COc1ccc(Cl)cc1 (centres undefined),8%,-18%,9%,-25%,-7%,6.2%,-5%,?
COc1ccccc1CNc1ccc(CNc2ncn[nH]2)cc1,5%,.,.,-7%,1%,.,2%,.
CN(C)S(=O)(=O)c1cccc2nsnc12,1%,?,4%,6%,1%,-1.1%,3%,14%
CC(C)(C)NS(=O)(=O)c1ccc(OCC(=O)Nc2ccc3c(c2)OCCO3)cc1,-4%,-14%,-7%,64%[activator],2%,1.6%,-12%,?
Cc1ccccc1-c1nnc(CS(=O)(=O)c2ccccc2)o1,2%,-30%,.,-3%,-5%,.,9%,?
O=C(NCc1ccccn1)c1ccc(CNS(=O)(=O)c2cccc(Cl)c2)cc1,9%,-1%,-1%,-23%,-7%,-0.9%,-1%,?
O=C1NC(=O)C(=Cc2coc3ccc(O)cc3c2=O)C(=O)N1,-1%,.,.,?,-4%,.,-1%,.
Cn1c(C(=O)NCCCN2CCc3ccccc3C2)cc2c(=O)n(C)c3ccccc3c21,-1%,.,-3%,-7%,-14%,-8.7%,6%,.
O=C(Cn1cnnn1)NCCc1ccc(Cl)cc1Cl,-1%,22%,.,-5%,-18%,.,16%,1%[46.1 µM]
COc1cc2c(cc1OC)-c1c3c(cc4c1[C@@H](C2)N(C)CC4)OCO3,22%,?,-3%,?,-2%,-3.3%,-5%,-40%
CCC(Cc1ccccc1)NC(=O)CCn1cccc1 (centres undefined),-2%,1%,4%,12%,-1%,0.4%,2%,4%
O=C(Oc1ccc2c(c1)OCO2)c1cccs1,1%,0%,2%,19%,-20%,-3.1%,-7%,13%
Cc1ccc(OCC(=O)NC2CCS(=O)(=O)C2)cc1 (centres undefined),10%,15%,-5%,.,7%,-4.0%,-1%,24%&24%
COc1ccc(C2C(C(=O)NCc3ccccn3)CCC(=O)N2c2cc(OC)c(OC)c(OC)c2)cc1 (centres undefined),4%,0%[46.1 µM],.,-1%,-10%,.,.,?
Cc1cc(S(=O)(=O)/N=C(\N)c2ccc(C(N)=O)cc2)cc(C)c1F,2%,-3%,.,1%,1%,.,3%,-12%
c1ccc(CCNCC2COc3ccccc3O2)cc1 (centres undefined),0%,.,.,31%[activator],15%,.,-4%,.
COc1ccccc1NS(=O)(=O)c1ccc(N2CCOCC2)c(N)c1,1%,-14%,.,45%[activator],0%,.,.,-15%
O=C1C2C3C=CC(C3)C2C(=O)N1CNc1ccc(O)cc1 (centres undefined),-5%,.,-26%,.,.,-5.5%,-5%,.
# Later entries.
SMILES,SARS PLpro yeast,Lassa entry inh,Cruzain inh noDet,2A StopGo,RE007 growth inh,Cruzain Triton,NS1 inh,Marburg entry inh
CC(=O)c1cccc(NC(=O)CCc2c(C)nc3c(-c4ccc(F)cc4)c(C)nn3c2C)c1,.,13%[46.1 µM],-5%,-19%,.,0.0%,.,2%[46.1 µM]
O=C(C1CC1)N1CCN(c2nc3ccc(F)cc3s2)CC1,.,10%[46.1 µM],-10%,19%,.,-0.6%,.,.
COc1ccccc1CNC(=O)CSc1nc(=O)[nH]c2c1CCC2,.,0%[46.1 µM],3%,-7%,.,-1.4%,.,.
COc1cccc(C(C(=O)NC(C)(C)C)N(C(=O)CCC(=O)Nc2cc(C)on2)c2ccc3c(c2)OCCO3)c1OC (centres undefined),2%,12%,.,-12%,-10%,.,5%,?
COc1ccccc1N1CCN(Cc2cccc(OC)c2O)CC1,5%,.,5%,-30%,2%,0.5%,-2%,-2%
O=C(O)c1[nH]c2ccccc2c1-c1ccccc1,6%,-15%,1%,-19%,3%,-1.4%,-1%,5%
CCOC(=O)CCc1c(C)nc2cc(-c3ccc(F)cc3)[nH]n2c1=O,2%,7%,11%,22%,-12%,4.9%,3%,-10%
O=C1CCCN1CCCNc1ncnc2c1[nH]c1ccc(Cl)cc12,-4%,25%,16µM*,2%,9%,25µM*,-24%,14%
CCCCN(C)C(=O)c1cc2c(s1)-c1ccccc1S(=O)(=O)C2,0%,.,.,12%,-4%,.,-5%,.
O=C(CN1CCN(Cc2ccccc2F)C1=O)NCc1cccnc1,5%,.,1%,-19%,-19%,-1.8%,5%,.
CCOC(=O)N1CCc2c(sc3c2c(=O)n(Cc2ccccc2)c(=O)n3Cc2ccc(C)cc2)C1,11%,0%[46.1 µM],?,-14%&-20%,22%,-1.1%&-0.9%,-3%,0%[46.1 µM]
CC1CCCN(CC(O)COCc2ccc3c(c2)OCO3)C1 (centres undefined),6%,4%,.,-2%,10%,.,.,2%
COc1ccccc1CNC(=O)Cc1ccc(Br)cc1,9%,-4%,-1%,18%,18%,-0.4%,-13%,1%
Cc1c(Cl)cccc1NC(=O)Cn1c(=O)cc(C)c2c(C)nn(-c3cccc(F)c3)c21,.,12%[46.1 µM],-9%,-9%,.,0.6%,.,.
CC(=O)n1c(Cl)c(NC(=O)CCl)c2ccccc21,?,?,-3%,32µM*,-4%,-3.5%,0%,?
COc1ccc(-c2nc3n(n2)C(c2ccccc2F)C(C(=O)Nc2cccnc2)=C(C)N3)cc1OC (centres undefined),.,-6%[46.1 µM],29%,-17%,.,-5.3%,.,-16%[46.1 µM]
O=C(CSc1nc2ccccc2c(=O)n1C1CC1)NCc1ccccc1,0%,8%,6%,0%,-1%,2.4%,-56%,?
CC(C)(C)NC(=O)NC(=O)CN1CCN(c2ccccc2O)CC1,2%,12%,.,-10%,10%,.,.,0%
COc1ccccc1CNC(=O)COC(=O)CSc1ccc(C)c(C)c1,1%,-1%,.,0%,18%,.,.,5%[46.1 µM]
CC(C)c1ccc(NC(=O)CN2CCN(C(=O)C3CCCO3)CC2)cc1 (centres undefined),-2%,6%,.,-15%,9%,.,5%,?
Nn1c(SCC(=O)Nc2c(Cl)cccc2Cl)nncc1=O,-2%,?,.,-8%,11%,.,.,-4%[46.1 µM]
Nc1cccc(Oc2cnccn2)c1,0%,.,.,-11%,-14%,.,5%,.
Cn1c(CCN2CCCCC2)nc2cc(NS(=O)(=O)c3ccc(Cl)cc3)ccc21,7%,6%,-14%,-13%,-22%,-4.9%,0.89µM*,-22%
Cc1nn(-c2ccccc2)c(N2CCCCC2)c1/C=N/NC(=O)c1ccncc1,1%,-1%,.,?,-5%,.,-3%,-13%[46.1 µM]
O=C(N/N=C/c1cccc([N+](=O)[O-])c1)c1c[nH]c2ccccc12,5%,4%[46.1 µM],.,-9%,-3%,.,3%,4%[46.1 µM]
# (continued)
SMILES,SARS PLpro yeast,Lassa entry inh,Cruzain inh noDet,2A StopGo,RE007 growth inh,Cruzain Triton,NS1 inh,Marburg entry inh
c1ccc(-n2cnc3cc(NCc4ccccn4)ccc32)cc1,-13%,?,-30%,.,5%,1.0%,-1%,-20%
CCOc1ccc(CC(=O)N/N=C/c2sccc2C)cc1,0%,.,.,26%,9%,.,-20%,.
Cc1ccc2oc(-c3ccc(C)c(NC(=O)c4ccc(C(C)(C)C)cc4)c3)nc2c1,.,-2%[46.1 µM],4%,28%,.,3.9%,.,?
COc1ccc(C2CC(=O)OC3=C2C(=O)CC(C)(C)C3)c(OC)c1 (centres undefined),1%,9%[46.1 µM],.,-13%,-2%,.,.,?
COC(=O)CSc1nnc(CNS(=O)(=O)c2ccc(C)cc2)n1C,3%,-1%,-10%,-13%,4%,4.3%,7%,-4%
NC(=O)COC(=O)c1ccccc1OCc1ccc(Cl)cc1,-1%,5%,.,-5%,14%,.,.,7%[46.1 µM]
Cc1ccccc1NC(=O)C1CCCN(S(=O)(=O)c2c(C)noc2C)C1 (centres undefined),7%,8%,-9%,-25%,18%,2.5%,5%,-3%
COCCNc1nc(-c2cc(-c3ccc(Cl)cc3)on2)cc(C(C)C)n1,1%,.,.,-20%,11%,.,0%,.
CC(=O)c1cccc(CN2CCC(CO)(Cc3ccccc3)CC2)c1,1%,.,.,-22%,10%,.,2%,.
COc1ccc(-c2nnc(SCC(=O)N3CCCCC3)o2)cc1OC,4%,.,-14%,-16%,6%,-5.7%,-12%,.
CCc1cc(C(=O)c2ccc(OC)cc2)c(NC(=O)CN2CCN(C)CC2)s1,0%,?,.,-24%,13%,.,1%,3.5µM*
CC(=O)Nc1ccc(-c2nc3cc(Cl)ccc3o2)cc1,0%,?,.,-12%,-17%,.,-21%,?
CCOc1ccc(CN(C)CC(=O)NCc2ccccc2Cl)cc1,0%,16%,.,33%[activator],5%,.,.,28%[46.1 µM]
COc1ccc(NC(=O)CN(c2cc(C)cc(C)c2)S(=O)(=O)c2c(C)noc2C)cc1Cl,.,0%[46.1 µM],-27%,-23%,.,-6.5%,.,-12%[46.1 µM]
O=C(NN1C(=O)C2C(C1=O)C1C=CC2C12CC2)c1ccc(Cl)cc1 (centres undefined),1%,9%[46.1 µM],.,-18%,1%,.,4%,34%[46.1 µM]
